HPGD block = inhibitors of human 15-hydroxyprostaglandin dehydrogenase (HPGD); 150,000 tested, 4.3% active; Potency, µM, inactives show at the highest dose activity change, negative = inhibition, most hits filed as inhibitors; purified HPGD, NADH fluorescence kinetic, PGE2 substrate; P15428; active = well fitted inhibition curve with a large enough effect (not every such curve was filed as active); inconclusive = small, poorly fitted or top-dose-only effect, or another doubt; inactive = no such curve, though single readings can be large or run the other way;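 further: top concentration of the series not given in the record; plate controls included wells without enzyme; inactives centre near -10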
Target sequence (P15428 whole entry, looked up): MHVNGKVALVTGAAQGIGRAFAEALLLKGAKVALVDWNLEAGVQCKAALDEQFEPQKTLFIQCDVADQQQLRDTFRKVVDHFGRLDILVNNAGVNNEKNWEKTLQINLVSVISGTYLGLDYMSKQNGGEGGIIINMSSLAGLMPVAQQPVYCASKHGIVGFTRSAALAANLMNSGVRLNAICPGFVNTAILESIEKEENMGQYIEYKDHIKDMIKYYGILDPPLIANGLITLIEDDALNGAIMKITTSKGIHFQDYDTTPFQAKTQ
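NADH formation kinetics: reaction with 30 uM PGE2 and 1 mM NAD+ (final), 20 nM enzyme, Tris-HCl pH 8 with Tween 20, after 15 min compound preincubation at room temperature. Fluorescence change, last versus first of five reads.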
An asterisk follows results filed as active; ? = inconclusive. On the % scale 0 is the no-effect control and ±100 the full control effect; potency means the concentration at half of the fitted maximal effect. These rows are one share of the data; rates above refer to the full screens.

SMILES	HPGD block
CCOc1ccccc1C1NC(=O)NC(C)=C1C(=O)OC1CCCCC1 (stereo unspecified)	-2%
Cc1ccc(C(=O)CSc2nc3ccccc3o2)cc1	-29%
O=C(Cc1ccccc1)NCC(=O)OCC(=O)c1cccc([N+](=O)[O-])c1	-5%
COc1ccc(/C(N)=N/OC(=O)CSc2ccccc2)cc1OC	-11%
O=C(Cc1ccccc1)CC1(O)C(=O)Nc2ccccc21 (stereo unspecified)	-7%
Cc1c(/C=N\NC(=O)c2cccc(F)c2)cnn1C	-1%
CCOC(=O)c1c(CN2CCOCC2)oc2ccc(OC)cc12	-24%
COc1ccc(-n2c(N)c(-c3nc4ccccc4n3C)sc2=S)cc1	-29%
COc1cccc(C(=O)Nc2ccc(S(=O)(=O)NCc3ccco3)cc2)c1	-13%
Cc1[nH]c(=O)[nH]c1C(=O)CCCCC(=O)OCC(=O)Nc1ccccn1	?
COC(=O)C1CCN(S(=O)(=O)c2c(C)n(C)c(=O)n(C)c2=O)CC1	1%
COC(=O)C1CN(S(=O)(=O)c2ccccc2)CCN1S(=O)(=O)c1ccccc1 (stereo unspecified)	-8%
CN1C2CCC1CC(NC(=O)c1nn(C)c3ccccc13)C2 (stereo unspecified)	-15%
Cc1cc(C(=O)OC(C)C(=O)Nc2cccc(S(=O)(=O)N3CCOCC3)c2)c(C)o1 (stereo unspecified)	-9%
CCCc1cc(=O)[nH]c(SCC(=O)c2[nH]c(C)c(C(=O)OCC)c2C)n1	-12%
CCC1=C(OC(=O)N(CC)CC)N2C(=O)OC(=NCCOC)[C@]2(Cc2ccccc2)[C@H]2C1=CC[C@H]1C(=O)N(CC)C(=O)[C@H]12	-9%
COc1ccc(NC(=O)COC(=O)c2ccc(N3CCCC3=O)cc2)cc1OC	-4%
Cc1cc(OCCCC(=O)N2CCCCC2)cc(C)c1Cl	7.9µM*
O=C(Nc1cccc(-c2cn3ccccc3n2)c1)c1cccc(Cl)c1	-20%
Cc1noc(C)c1S(=O)(=O)N1CCc2nc(COc3ccccc3)c3c(c2C1)CO[C@@H](C)C3	-7%
N#C[C@@H](N=Nc1ccccc1C(=O)O)C(N)=O	-5%
COC(=O)Nc1ccc(S(=O)(=O)n2cnc3ccccc32)cc1	-1%
COc1ccc(NC(=O)CCCN2C(=O)C3C4C=CC(C4)C3C2=O)c(OC)c1 (stereo unspecified)	-5%
COc1ccc(CN2CCN(c3ccc(F)cc3)CC2)c(OC)c1OC	-7%
CCn1c(=O)n(CC(=O)Nc2cc(OC)c(OC)c(OC)c2)c(=O)c2ccccc21	-3%

Quoted at random: 4 records from the list.
SMILES	HPGD block
Cc1c(/C=N\NC(=O)c2cccc(F)c2)cnn1C	-1%
COc1ccc(NC(=O)CCCN2C(=O)C3C4C=CC(C4)C3C2=O)c(OC)c1 (stereo unspecified)	-5%
COC(=O)C1CN(S(=O)(=O)c2ccccc2)CCN1S(=O)(=O)c1ccccc1 (stereo unspecified)	-8%
COc1ccc(-n2c(N)c(-c3nc4ccccc4n3C)sc2=S)cc1	-29%

Grouped by structure: the entries above containing a furan ring, fused or not
SMILES	HPGD block
CCOC(=O)c1c(CN2CCOCC2)oc2ccc(OC)cc12	-24%
COc1cccc(C(=O)Nc2ccc(S(=O)(=O)NCc3ccco3)cc2)c1	-13%
Cc1cc(C(=O)OC(C)C(=O)Nc2cccc(S(=O)(=O)N3CCOCC3)c2)c(C)o1 (stereo unspecified)	-9%

Next part.
SMILES	HPGD block
Cc1cc(=O)n2[nH]c(N3C(=O)CCC3=O)nc2n1	-11%
CC(=O)N(c1ccc(C)cc1)C1C=CS(=O)(=O)C1 (stereo unspecified)	-5%
O=C(Oc1ccc2c(-c3ccccc3)cc(=O)oc2c1)c1cccs1	?
COc1ccc(NC(=O)c2cc3c(s2)CCC(C)C3)cc1S(=O)(=O)N1CCOCC1 (stereo unspecified)	-12%
CN1C(=O)N(C)C2(c3ccccc3)Nn3c(s/c(=C/c4ccco4)c3=O)=NC12c1ccccc1 (stereo unspecified)	?
COc1ccc(-c2nc(SCC(=O)N3CCOCC3)n[nH]2)cc1	-8%
CC(=O)NC(=S)Nc1ccc(NC(=O)c2cccs2)cc1	-23%
CCSc1nnc(NC(=O)c2cccnc2)s1	-21%
Cc1nc2ccccc2c(=O)n1/N=C/c1cccnc1	-7%
COc1ccccc1N(C)S(=O)(=O)c1ccc(C(=O)Nc2ccc3nc(C)sc3c2)cc1	?
CC12CC(NC(=O)N1c1ccc(C(=O)N3CCN(c4ccccn4)CC3)cc1)c1ccccc1O2 (stereo unspecified)	-12%
CC(=O)Oc1cc2c(C(=O)NCCN3CCOCC3)c(C)oc2c2ccccc12	-2%
COC(=O)c1ccccc1NC(=O)C(C)Oc1ccccc1 (stereo unspecified)	-5%
CCCOC(=O)CC1C(=O)NCCN1Cc1ccc(F)cc1 (stereo unspecified)	-6%
COc1cc(CN2CCCCC2)cc2cc(C(=O)O)c(=O)oc12	-7%
Clc1nccnc1-c1ccccc1	-12%
O=C1CC(SC(=Nc2ccccc2)Nc2ccccc2)C(=O)N1c1ccc(Cl)cc1 (stereo unspecified)	-10%
CCOc1ccc(N2CC(=O)Nc3ccccc3NCC2=O)cc1	-28%
N#CC1=C(N)Oc2n[nH]c(-c3cccs3)c2C1c1ccoc1 (stereo unspecified)	-22%
CC(C)(C)Cn1c(=O)[nH]c(=O)c2cc([N+](=O)[O-])cnc21	-18%
COC(=O)N[C@@H](CCc1ccccc1)[C@]1(C(=O)OC)CCCC1=O	-1%
CCc1ccc(-c2nc(CSCC(=O)N3CCN(c4ccccn4)CC3)c(C)o2)cc1	-21%
O=C(COc1ccccc1Cl)OCC(=O)N1CCN(S(=O)(=O)c2ccccc2)CC1	?
CCN1C(=O)/C(=C/C=C2\C=CN(CC)c3ccccc32)SC1=S	-14%
CN(C)S(=O)(=O)c1ccc(C(=O)OCCCN=C2NS(=O)(=O)c3ccccc32)cc1	3%

Single values from the list.
Reading for `Cc1ccc(C(=O)CSc2nc3ccccc3o2)cc1` under HPGD block: -29%
Reading for `CC(=O)Oc1cc2c(C(=O)NCCN3CCOCC3)c(C)oc2c2ccccc12` under HPGD block: -2%

The list goes on:
SMILES	HPGD block
NC(=O)C1CCCN(S(=O)(=O)c2ccc(Br)cc2)C1 (stereo unspecified)	-9%
CC(=O)Nc1cccc(C(=O)Nc2ccccc2C(=O)O)c1	-22%
O=C(O)[C@H](C1NCCS1)N1C(=O)c2ccccc2C1=O (stereo partly specified)	-9%
COc1cc(C(=O)OC(C)C(=O)N2CCc3ccccc3C2)ccc1OCC(=O)N1CCOCC1 (stereo unspecified)	-6%
CN(C)Cc1ccccc1-c1cc(NC2CC2)ncn1	-7%
Cc1cc2c(cc1C)CSC(c1ccc3ccccc3c1O)SC2	-15%
O=C(CN1C(=O)C2CC=CCC2C1=O)Nc1nccs1 (stereo unspecified)	-25%
Cc1ccc(S(=O)(=O)Oc2ccccc2/C=N/NC(=O)c2c(Cl)cnn2C)cc1	0%
CS(=O)(=O)N(CC(=O)NCCSc1ccccc1)c1ccc2c(c1)OCO2	-5%
O=C(C1CCC(CNc2c(N3CCCCC3)c(=O)c2=O)CC1)N1CCc2ccccc2C1 (stereo unspecified)	0.56µM*
CCOC(=O)/C(C#N)=C/c1cn(CCC(=O)O)nc1-c1ccc(Cl)cc1	-10%
COC(=O)c1ccc(N2C(=O)CC(NCc3ccccc3)C2=O)cc1 (stereo unspecified)	-11%
COC(=O)Nc1c(C)nn(Cc2ccccc2C)c1C	-4%
O=C(Nc1ccc(N2CCOCC2)cc1)c1cc2ccccc2o1	-24%
COc1ccc(C(=O)N2CCC[C@@]3(CCN(c4cccc(-c5ccccc5)c4)C3)C2)cc1	-24%
Cc1cc(=O)n2nc(N3CCCC3C(=O)NCc3ccccn3)sc2n1 (stereo unspecified)	-3%
O=C(COC(=O)c1nc(-c2ccccc2)n(-c2cccc(C(F)(F)F)c2)n1)NCc1cccs1	-4%
Cc1csc(NC(=O)c2ccoc2C)n1	?
CCCc1n[nH]c2c1/C(=N/O)CC(c1ccccc1)C2 (stereo unspecified)	7.1µM*
CSCCC(NC(=O)c1ccc(Cl)cc1)C(=O)OCC(=O)Nc1cc(Cl)ccc1C#N (stereo unspecified)	-12%
CN(C)/C=C/C(=O)c1ccc(F)cc1	-28%
CN(C1CCS(=O)(=O)C1)S(=O)(=O)c1ccc(C2CCCCC2)cc1 (stereo unspecified)	-6%
CCOc1ccc(N(CC(=O)NCc2ccccc2OC)S(C)(=O)=O)cc1	-2%
CC#C[C@]1(O)CC[C@H]2[C@@H]3CCC4=CC(=O)CCC4=C3[C@H](c3ccc(N(C)C)cc3)C[C@@]21C	3%
CC(Oc1ccc(-c2nccc(-c3ccccn3)n2)cc1)C(=O)NN (stereo unspecified)	-5%
SMILES	HPGD block
O=C(Nn1cnnc1)C(Sc1ccccc1)c1ccccc1 (stereo unspecified)	-1%
Cn1cc(-c2nnnn2-c2cccc(C(F)(F)F)c2)c(C(F)(F)F)n1	-10%
CC(C)COc1ccc(C2NC(=O)NC2=O)cc1 (stereo unspecified)	-7%
CCOC(=O)N1CCC(NC(=O)c2cc(C(=O)NC3CCCC3)ccc2CO)CC1	1%
COc1cc(NC(=O)C2=C(N3CCOCC3)/C(=C/c3ccc(Cl)cc3)CC2)cc(OC)c1OC	-25%
c1csc(CN2CCOCC2)c1	-11%
Cc1ccc(NC(=O)CCSc2nnc(-c3ccco3)o2)cc1	-12%
CCCNC(=O)COc1ccc(S(=O)(=O)Nc2ccc(C)cc2)cc1	1%
Cc1ccc(C)c(NC(=O)CN(C)S(=O)(=O)c2ccccc2)c1	-2%
CCn1cc(Cl)c(C(=O)NNC(=O)CCn2cc([N+](=O)[O-])cn2)n1	4%
CCc1ccccc1NC(=O)CSc1nc(-c2ccccc2)nn1C(=O)c1cccc([N+](=O)[O-])c1	13µM*
COc1ccc(C2(CCN)CC(C)N(C)CC2C)cc1 (stereo unspecified)	-14%
COCCNC(=O)C(c1ccccc1)N(C(=O)Cn1nnc2ccccc21)c1cccnc1 (stereo unspecified)	-14%
CC(C)C[C@H]1C(=O)N2CCC[C@@H]2[C@]2(O)O[C@](NC(=O)[C@@H]3C=C4c5cccc6[nH]c(Br)c(c56)C[C@H]4N(C)C3)(C(C)C)C(=O)N12	-10%
Cc1oc2ncnc(N)c2c1C	-12%
CCOc1ccc(N2CC(C(=O)Nc3ccccc3N3CCOCC3)CC2=O)cc1 (stereo unspecified)	-5%
Fc1ccc2c(Cl)c(-c3nnc(-c4cccs4)o3)sc2c1	?
CCCc1nnc(NC(=O)CCC(=O)NC2CCCc3ccccc32)s1 (stereo unspecified)	-8%
Cc1onc(-c2c(Cl)cccc2Cl)c1C(=O)NCc1ccco1	-15%
Cc1cc(O)cc(C)c1Cl	-5%
COC(=O)CN=C1OC(=O)N2C(=O)C3=C4C(C[C@H]5C(=O)N(c6ccccc6)C(=O)[C@H]5[C@H]4[C@@]12Cc1ccccc1)[C@H]1C(=O)N(c2ccccc2)C(=O)[C@H]1[C@H]3C (stereo partly specified)	-9%
COc1ccccc1OCC(=O)Nc1ccc(Cl)cc1	-22%
CC(C)C(C)NC(=O)COc1ccc(Sc2ccc(OCC(=O)NC(C)C(C)C)cc2)cc1 (stereo unspecified)	?
Cc1cc(C(=O)NCCCN2CCN(C3CCCCC3)CC2)n(-c2ccccc2)n1	-7%
CN1C(=O)c2cccc3c(S(=O)(=O)NCc4ccco4)ccc1c23	-16%
SMILES	HPGD block
N#CC(C(=O)NC1CCCCC1)c1nc2ccccc2nc1N1CCOCC1 (stereo unspecified)	-10%
O=C(CCNC(=O)c1ccccc1Cl)Nc1cccc(C(F)(F)F)c1	-1%
CCN(CC)C(=O)CNC(=O)Cc1ccc(Cl)cc1	-22%
CCc1cccc(C)c1NC(=O)C1CN(S(=O)(=O)c2ccccc2)CCN1S(=O)(=O)c1ccccc1 (stereo unspecified)	0%
Cc1ccccc1N/N=C1\CCCNC1=O	22µM*
CCC(=O)c1c[nH]c(C(=O)NCCc2ccccn2)c1	-3%
COc1cc(-c2nnc(COc3ccc4cc(Br)ccc4c3)o2)cc(OC)c1OC	-25%
CC(=O)N1CCN(c2ccc([N+](=O)[O-])c(NCC3CCCO3)c2)CC1 (stereo unspecified)	-12%
O=C(O)CCCCCn1c(O)c(C=C2N=c3ccccc3=N2)sc1=S	?
CCOc1ccc(C(=O)CN2CCN(S(=O)(=O)c3ccc(Cl)cc3)CC2)cc1	-14%
Nc1ccnn1Cc1cccnc1	-9%
O=C(NCc1ccccn1)Nc1ccc(Cl)c(Cl)c1	-3%
O=C1C(Oc2ccccc2)C(c2ccc3c(c2)OCO3)N1CCc1ccc(F)cc1 (stereo unspecified)	-2%
COc1ccccc1C(=O)N(Cc1cccs1)C1CCS(=O)(=O)C1 (stereo unspecified)	-1%
C=CCc1cc(C)cc(C)c1OCCn1cncn1	-6%
O=[N+]([O-])c1ccc(-c2cc(-c3ccncc3)nc3ccc4ccccc4c23)cc1	-7%
COc1ccc(/C=C(/NC(=O)c2cccs2)C(=O)N2CCOCC2)cc1OC	-13%
CCc1nnc(NC(=O)CCC(=O)N2CCCC2)s1	-11%
Cc1c(/C=N\NC(=O)c2ccc([N+](=O)[O-])cc2)cnn1C	-11%

In the list so far, these have bromine.
SMILES	HPGD block
NC(=O)C1CCCN(S(=O)(=O)c2ccc(Br)cc2)C1 (stereo unspecified)	-9%
CC(C)C[C@H]1C(=O)N2CCC[C@@H]2[C@]2(O)O[C@](NC(=O)[C@@H]3C=C4c5cccc6[nH]c(Br)c(c56)C[C@H]4N(C)C3)(C(C)C)C(=O)N12	-10%
COc1cc(-c2nnc(COc3ccc4cc(Br)ccc4c3)o2)cc(OC)c1OC	-25%

Screens from PubChem.
